Hsc70 ATP site = Hsc70 inhibitors, probe displacement, primary screen, biochemical, fluorescence polarization (AID 568); displacement, % at 20 µM, or IC50 in µM where a hit was titrated; Hsc70 fluorescence polarization, probe displacement; higher % means a stronger effect; strong numbers were not always called active; 83,000 tested, under 10 active; Heat shock cognate 71 kDa protein (Homo sapiens);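 active = displacement above 50% without optical interference and an IC50 on retest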;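 also: ATPase domain with a fluorescein-tagged ATP probe; 0% = vehicle and 100% = excess ADP; read after one hour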
MT1-MMP reporter = inhibitors of MT1-MMP promoter transcription, cell-based, luciferase reporter, luminescence (AID 618). calls from a first round at 10 µM; hits with a dose series show EC50 in µM. hit rate 0.62% among 87,000. MT1-MMP promoter luciferase reporter cells, luminescence;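 active = over half of the reporter light lost at 10 µM or EC50 under 50 µM; inactive = the rest and hits that failed the dose series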;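 also: actives suppress MT1-MMP promoter-driven transcription so potencies describe inhibitors; HT1080 fibrosarcoma cells; overnight exposure; toxic or luciferase-blocking compounds were not removed from the actives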
WNV NS2B-NS3 inh = inhibitors of WNV NS2B-NS3 protease, primary screen, biochemical, fluorogenic substrate; hit rate 0.18% among 65,000; Genome polyprotein (West Nile virus), P06935; z-score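 (tested at a level between 10 and 100 µM)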; fluorogenic substrate Ex360/Em465; active compounds read low; AID 577, 2007;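 active = z-score at -3 or under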;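 also: score is relative to mean and spread of the compound wells of a plate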
Target sequence (P06935 1371-1501 limits assumed): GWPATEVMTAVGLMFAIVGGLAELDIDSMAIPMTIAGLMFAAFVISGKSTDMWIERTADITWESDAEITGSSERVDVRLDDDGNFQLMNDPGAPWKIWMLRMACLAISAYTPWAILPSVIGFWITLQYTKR
Target sequence (P06935 1502-1679 limits assumed): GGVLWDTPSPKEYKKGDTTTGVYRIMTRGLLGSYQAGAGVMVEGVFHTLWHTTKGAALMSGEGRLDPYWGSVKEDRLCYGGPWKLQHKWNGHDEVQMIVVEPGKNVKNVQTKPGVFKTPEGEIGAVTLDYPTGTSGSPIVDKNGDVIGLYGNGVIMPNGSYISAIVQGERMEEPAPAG
* marks the source's active call; other numbers are inactive results; i = inactive; nt = no result given.

Values run as follows: Hsc70 ATP site	MT1-MMP reporter	WNV NS2B-NS3 inh
#1 CN(C)S(=O)(=O)c1ccc(NS(=O)(=O)/C=C/c2ccccc2)cc1
  2.4%	i	1.8
#2 OC(CN1CCCCC1)CN(c1ccccc1)c1ccccc1 (centres undefined)
  -2.3%	i	0.09
#3 COc1ccc(CCNC(=O)CCNS(=O)(=O)c2cccc3nsnc23)cc1OC
  6.2%	i	2.2
#4 COc1ccc(C2CC(=O)C=C(NCCC(C)C)C2)cc1 (centres undefined)
  -0.8%	i	nt
#5 Cc1c(NC(=O)CSc2nncc3ccccc23)c(=O)n(-c2ccccc2)n1C
  4.0%	i	-0.77
#6 COc1cc(S(=O)(=O)N(Cc2cccs2)C2CC2)ccc1-n1cnnn1
  3.5%	i	nt
#7 Cc1c(Br)cc(C(=O)NCCCN2CCOCC2)c(C)c1C
  -5.0%	i	1
#8 CCOc1ccc(CNC23CN4CN(CN(C4)C2)C3)cc1
  -7.7%	i	1.1
#9 Cc1ccccc1NC1=C(Cl)C(=O)OC1NC(=O)c1ccccc1 (centres undefined)
  3.7%	i	nt
#10 CCCCn1c(C(C)NC(=O)CCC)nc2ccccc21 (centres undefined)
  6.1%	i	-0.72
#11 O=C(CN1C(=O)CSC1=O)c1ccccc1
  3.8%	i	1.6
#12 Cc1ccccc1-n1nnnc1Sc1nnnn1-c1ccccc1
  1.5%	i	nt
#13 CCN(CC)c1ccc(NC(=O)Cn2cc3c(n2)CCC(C)C3)c(C)c1 (centres undefined)
  3.0%	i	-0.37
#14 CCOc1ccccc1-n1nnnc1SCc1nc2ccccc2s1
  -8.0%	i	-1
#15 O=C(NCCc1c[nH]c2ccccc12)C1CCN(c2nnc(N3CCCC3=O)s2)CC1
  2.7%	i	-0.66
#16 O=C(Sc1nnc(-c2ccccc2)o1)N1c2ccccc2Sc2ccccc21
  -0.2%	i	-0.52
#17 CCn1nnnc1-c1ccc(OC)c(S(=O)(=O)Nc2ccc(C)c(C)c2)c1
  -3.2%	i	nt
#18 CCn1c(SCC(=O)NC2CCCc3ccccc32)nnc1-c1cccs1 (centres undefined)
  2.6%	i	nt
#19 Cc1ccc2c(c1)C(O)(CC(=O)c1cccnc1)C(=O)N2 (centres undefined)
  9.0%	i	-1.5
#20 CCOCCn1c(N2CCN(c3ccc(OC)cc3)CC2)nc2c1c(=O)n(C)c(=O)n2C
  3.7%	i	-0.06
#21 O=C(CC1(O)C(=O)Nc2cc(Cl)cc(Cl)c21)c1ccccc1O (centres undefined)
  3.4%	i	0.42
#22 CN(C(=O)c1ccc(NC(=O)C2CC=CCC2C(=O)O)cc1)c1ccccc1 (centres undefined)
  4.5%	i	0.99
#23 COC(=O)c1ccc(-c2ccc(CNCC(O)c3ccccc3)o2)cc1 (centres undefined)
  -5.6%	i	0.13
#24 Cc1occc1-c1nnc(SCC(=O)Nc2nccs2)n1CCc1ccccc1
  7.0%	i	0.21
#25 CON(C)c1nc(Oc2ccc(=O)[nH]n2)nc(N(C)C)n1
  4.9%	i	-0.54
#26 CCCCNC(=O)c1c(N)n(/N=C/c2ccccn2)c2nc3ccccc3nc12
  -2.3%	i	nt
#27 CCNC(=O)CN(c1ccc(OC)c(OC)c1)S(=O)(=O)c1ccccc1
  2.4%	i	0.69
#28 CCOC(=O)COc1ccc(Oc2nc(C)cc(OC)n2)nn1
  -1.4%	i	0.28
#29 CC(=O)C1C(c2ccncc2)NC(=O)NC1(O)C(F)(F)F (centres undefined)
  -4.2%	i	-0.74
#30 COc1ccc(NC(=O)CNS(=O)(=O)c2cccs2)c(OC)c1
  -0.4%	i	nt
#31 COC(=O)c1cn(CC(=O)NC2CCCCC2)c2ccccc12
  -1.0%	i	-0.25
#32 Cc1ccc2c(c1)CCCN2C(=O)Nc1ccc2c(c1)OCO2
  -0.9%	i	-0.17
#33 Cc1ccc(OCC(=O)N2N=C(C(F)(F)F)CC2(O)C(C)(C)C)cc1C (centres undefined)
  3.1%	i	nt
#34 Clc1ccccc1C1CC(c2ccccc2)Nc2ncnn21 (centres undefined)
  -6.8%	i	-0.21
#35 Cc1ccc(N)cc1-n1c(C)ccc1C
  -5.8%	i	0.08
#36 Cc1csc(N(C(=O)c2cccc(S(=O)(=O)N(C)C)c2)c2ccccc2)n1
  0.5%	i	0.55
#37 CCC(CC)C(=O)Nc1cccc(C(=O)N2CCCCCC2)c1
  4.8%	i	0.25
#38 Cc1ccc(S(=O)(=O)c2cc3c(=O)n4ccccc4nc3n(CC3CCCO3)c2=N)cc1C (centres undefined)
  -15%	i	-0.37
#39 CSCCC(NC(=O)C1CCC(C)CC1)C(=O)N1CCN(c2ccccn2)CC1 (centres undefined)
  -8.4%	i	0.87
#40 CCOC(=O)Cn1c(=O)c(-c2ccccc2NC)nc2ccccc21
  -5.1%	i	nt
#41 CCC1S/C(=N/C(=O)NC2CCCCC2)NC1=O (centres undefined)
  -2.6%	i	nt
#42 COC(=O)c1ccccc1OCC(=O)NC1CCCCC1
  -2.1%	i	0.27
#43 O=C(NC1CCCCC1)C(c1ccc(F)cc1)N(Cc1ccco1)C(=O)Cn1nnc2ccccc21 (centres undefined)
  -2.6%	i	0.15
#44 Cc1ccc(NC(=O)CCC(C(=O)O)N2C(=O)c3ccccc3C2=O)cc1 (centres undefined)
  -0.7%	i	-1.2
#45 COc1cccc(Oc2cncnc2-c2ccc(OC)cc2O)c1
  -1.1%	i	-0.92
#46 Cc1ccccc1-n1c(SCc2ccccn2)nc2n[nH]c(C)c2c1=N
  -4.6%	i	0.73
#47 COC(=O)c1ccc(C(=O)OC)c(NC(=O)c2cc3ccccc3o2)c1
  -2.6%	i	-0.61
#48 Cc1nn(CC(O)COc2ccc3c(c2)CCC3)c(C)c1C (centres undefined)
  5.3%	i	0.24
#49 CCn1cc(C(=O)Nc2ccc(OC)c(OC)c2)c2cc(OC)c(OC)cc2c1=O
  5.5%	i	nt
#50 CC(=O)c1cccc(NC(=O)N2CCCC2C(=O)NCc2ccccc2)c1 (centres undefined)
  7.4%	i	-0.38
#51 COC(=O)C1=C(N)Oc2cc(C)n(Cc3cccnc3)c(=O)c2C1c1ccc(OC)c(OC)c1OC (centres undefined)
  -1.6%	i	-0.6
#52 CCCC(=O)Nc1c(O)c2ccccc2[nH]c1=O
  -4.3%	i	-0.99
#53 CCC(C)(C)n1nnnc1C(c1cc2cc(OC)c(OC)cc2[nH]c1=O)N1CCc2ccccc21 (centres undefined)
  -1.4%	i	-1.4
#54 O=C1c2ccccc2C(O)(Cc2ccccc2)N1CCCN1CCOCC1 (centres undefined)
  2.9%	i	-0.94
#55 CCCSc1nnc(NC(=O)Nc2ccccc2)s1
  5.0%	i	-0.79
#56 COc1ccc(NC(=O)c2ccco2)cc1NC(=O)c1ccc(Br)o1
  -2.9%	i	0.2
#57 NC(=O)C1CCCN(S(=O)(=O)c2ccccc2)C1 (centres undefined)
  1.1%	i	2
#58 CCOC(=O)C1=C(C)Nc2nnnn2C1c1ccccc1Cl (centres undefined)
  1.3%	i	nt
#59 CN(C1CCS(=O)(=O)C1)S(=O)(=O)c1ccc(N2CCCC2=O)cc1 (centres undefined)
  3.4%	i	0.76
#60 O=C(CN1C2=NCCN2c2ccccc21)N1CCOCC1
  3.6%	i	-0.27

Full records from above:
Entry for O=C1c2ccccc2C(O)(Cc2ccccc2)N1CCCN1CCOCC1 (centres undefined) : Hsc70 ATP site = 2.9%; MT1-MMP reporter = i; WNV NS2B-NS3 inh = -0.94
Entry for CCOC(=O)COc1ccc(Oc2nc(C)cc(OC)n2)nn1 : Hsc70 ATP site = -1.4%; MT1-MMP reporter = i; WNV NS2B-NS3 inh = 0.28

Following part.
Values run as follows: Hsc70 ATP site	MT1-MMP reporter	WNV NS2B-NS3 inh
#61 O=C(NC1CCCCCCC1)c1ccco1
  -2.6%	i	-0.92
#62 COCCn1c(=NC(=O)CSC(C)=O)sc2cc(OC)ccc21
  -1.8%	i	-0.69
#63 CN(C)c1cc(O)c(C(=S)Nc2ccccc2)c(N(C)C)c1
  4.1%	i	-1.2
#64 O=C(Nc1nc(-c2ccncc2)cs1)c1ccc(S(=O)(=O)N2CCOCC2)cc1
  -0.5%	i	1.7
#65 CC(CN(C)Cc1ccccc1)OC(=O)c1ccc2c(c1)OCCO2 (centres undefined)
  0.8%	i	-0.69
#66 CCOC(=O)c1cc2cc(C)ccc2[nH]1
  -6.2%	i	0.03
#67 CCc1nnc(NC(=O)c2ccncc2)s1
  4.2%	i	-1
#68 COc1cc(C(=S)N2CCCC2)cc(OC)c1O
  3.2%	i	nt
#69 Cc1cc(C)c(S(=O)(=O)O)c(C)n1
  1.2%	i	0.24
#70 CCOc1ccc(C2C(C(=O)Nc3ccc(F)cc3)=C(C)Nc3nc(CCCO)nn32)cc1 (centres undefined)
  -2.0%	i	0.98
#71 Cc1c(NS(=O)(=O)c2cccc3nsnc23)c(=O)n(-c2ccccc2)n1C
  -4.2%	i	-0.3
#72 CCOC(=O)Nc1ccc(S(=O)(=O)NCc2ccccc2)cc1
  -1.8%	i	0.48
#73 CC(C)Cn1c(=O)c(C(=O)Nc2ccccc2S(N)(=O)=O)c(O)c2ccccc21
  1.4%	i	0.33
#74 O=C1c2ccccc2CN1CCNS(=O)(=O)c1ccc(Cl)cc1
  3.7%	i	0.38
#75 O=C(Nc1ccc(Cl)cc1)Nc1ccc2c(c1)N1CCN=C1S2
  -7.9%	i	-0.47
#76 COc1cccc(-n2c(CNc3ccc(F)cc3)nnc2SCC(N)=O)c1
  5.2%	i	-0.18
#77 CCc1ccc2nc(SCC(=O)N(CC)CC)c(C#N)cc2c1
  -1.4%	i	-0.29
#78 O=C(O)c1ccccc1S(=O)CCO (centres undefined)
  0.5%	i	nt
#79 Cc1ccc(C(=O)n2c(=S)nc3ccccn32)cc1
  -2.2%	i	nt
#80 O=C(CN1C(=O)CSC1=O)Nc1ccccc1N1CCOCC1
  -0.6%	i	-1.1
#81 COc1cc(OC)c(C2C(C#N)=C(N)Oc3cc(C)n(CCCN4CCOCC4)c(=O)c32)cc1OC (centres undefined)
  -2.5%	i	-0.09
#82 CCC(C)NC(=O)Cn1cnc2sc(C)cc2c1=O (centres undefined)
  1.1%	i	0.85
#83 c1csc(-c2csc(-c3cccs3)n2)c1
  1.6%	i	-1.7
#84 CC(C)OC(=O)Cn1nnc(-c2ccccc2)n1
  4.2%	i	nt
#85 CNC(=O)Nc1cc(C(C)(C)C)no1
  -2.4%	i	-0.9
#86 CCC(C)c1ccc(S(=O)(=O)N2CCN(C(=O)COc3ccc4c(C)cc(=O)oc4c3)CC2)cc1 (centres undefined)
  2.6%	i	nt
#87 CSc1nc(-c2ccco2)nn1S(=O)(=O)c1ccccc1
  2.8%	i	0.98
#88 CCC(c1nnnn1CCc1ccccc1)N1CCN(C(=O)c2ccco2)CC1 (centres undefined)
  4.1%	i	3.8
#89 CS(=O)(=O)N1CCN(C(=O)c2ccc(-c3ccccc3)cc2)CC1
  1.9%	i	1
#90 Cc1ccc(NC(=S)NCC2CCCO2)cc1 (centres undefined)
  -2.3%	i	nt

Some of these compounds in order of length of the SMILES, rising.
Values run as follows: Hsc70 ATP site	MT1-MMP reporter	WNV NS2B-NS3 inh
#65 CC(CN(C)Cc1ccccc1)OC(=O)c1ccc2c(c1)OCCO2 (centres undefined)
  0.8%	i	-0.69
#88 CCC(c1nnnn1CCc1ccccc1)N1CCN(C(=O)c2ccco2)CC1 (centres undefined)
  4.1%	i	3.8
#64 O=C(Nc1nc(-c2ccncc2)cs1)c1ccc(S(=O)(=O)N2CCOCC2)cc1
  -0.5%	i	1.7

(further entries)
Values run as follows: Hsc70 ATP site	MT1-MMP reporter	WNV NS2B-NS3 inh
#91 CCOC(=O)c1c(C=O)c(C)n(Cc2ccccc2Cl)c1C
  0.8%	i	nt
#92 Cc1nn(Cc2ccc(Cl)c(Cl)c2)c(C)c1NC(=O)c1cc(-c2ccco2)on1
  -6.0%	i	0.08
#93 CCc1nc(N[C@@H](CC(C)C)C(=O)O)c2oc3ccccc3c2n1
  -6.4%	i	nt
#94 CC(C)(C)OC(=O)NC(CCNC=C1C(=O)OC(C)(C)OC1=O)C(=O)O (centres undefined)
  0.8%	i	-0.27
#95 Cc1ccc(NC(=O)C2C3C=CC4(CN(Cc5cccnc5)C(=O)C24)O3)cc1F (centres undefined)
  -1.8%	i	0.03
#96 CCCNC(=O)CN(C1CCCCC1)S(C)(=O)=O
  5.4%	i	0.27
#97 CNc1nnc(CSc2nc3ccccc3s2)s1
  5.2%	i	-0.14
#98 COc1ccc(O)c(C2NC(CC(C)C)(C(=O)O)C3C(=O)N(Cc4ccccc4)C(=O)C23)c1 (centres undefined)
  1.2%	i	-1
#99 O=C(Nc1cccc(C(F)(F)F)c1)c1cccnc1
  -3.7%	i	-0.16
#100 CCN(CC)C(=O)c1cc2sc3ccccc3c2s1
  0.4%	i	0.25
#101 O=C(CCc1ccccc1)Nc1cccc(-c2nnc(-c3ccco3)o2)c1
  4.7%	i	0.65
#102 COCCn1c(C)cc(C(=O)COC(=O)CCc2ccc(S(=O)(=O)N3CCOCC3)cc2)c1C
  7.0%	i	-0.66
#103 CC1(CCc2ccc3c(c2)OCO3)NC(=O)c2ccccc2N1 (centres undefined)
  -4.1%	i	0.64
#104 Cc1cccc(Cc2cnc(NC(=O)c3ccc(C)o3)s2)c1
  1.3%	i	nt
